Screening data deposited in PubChem BioAssay by National Center for Advancing Translational Sciences (NCATS).
gsp agonist = activates gsp, the McCune-Albright syndrome mutation | 0.13% of 340,000 active | Potency, µM (top dose mostly 76.9 µM), for inactives: top-dose activation (cAMP increase), hits mostly activators | gsp mutant cells, cAMP HTRF, 30 min; control for the full effect not named in the record; active = well fitted activation curve with a large enough effect; inconclusive = small, poorly fitted or top-dose-only effect, or another doubt; inactive = no such curve, though single readings can be large or run the other way; cell line not stated here;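 further: phosphodiesterase inhibitor Ro 20-1724 added with compounds to block cAMP breakdown; potency means the concentration at half of the fitted maximal effect; nearly all actives have a fitted effect of over 60% in size; about a fifth of the inactives were tested at one dose only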
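Cells stably selected in G418 were plated at 2000/well, grown 16-24 hr, then given compounds in DMSO with the PDE inhibitor […] (300 uM solution added) for 30 min at 37C; cAMP was read by HTRF.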
ClpP mod = qHTS Assay for Activators of ClpP | ATP-dependent Clp protease proteolytic subunit (Bacillus subtilis (strain 168)), P80244 | purified B. subtilis ClpP, FRET peptide cleavage, 20 min | Potency, µM (titrated, usually from 57.5 µM), without a hit: at the highest dose activity change, negative = active | 1.9% of 340,000 active | AID 651965, 2013; active = well fitted falling curve with a large enough effect; inconclusive = small, poorly fitted or top-dose-only effect; inactive = no such curve, though single readings can be large or run the other way; further: potency means the concentration at half of the fitted maximal effect; the source files actives as falling curves though it sought activators and does not explain the sign; nearly all actives have a fitted effect of over 65% in size; many hits overshoot -100%
Target sequence (P80244 whole entry, looked up): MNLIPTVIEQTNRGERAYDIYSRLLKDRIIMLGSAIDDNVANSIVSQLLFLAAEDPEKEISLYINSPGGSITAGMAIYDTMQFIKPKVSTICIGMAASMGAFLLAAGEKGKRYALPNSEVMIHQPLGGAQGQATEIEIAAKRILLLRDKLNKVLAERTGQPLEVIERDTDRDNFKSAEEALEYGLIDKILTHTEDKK
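Buffer: 100 mM Tris/HCl pH8, 100 mM KCl, 0.05% low protease BSA, 2.5% glycerol, 0.01% Tween-20. ClpP 10 microg/mL final; 20 min RT; delta FRET normalized to ADEP and DMSO controls.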
TRPML1 agonist = agonists of human TRPML1 channel | TRPML1-expressing cells, Ca2+ dye fluorescence, FDSS; host cell line not named in the record; reference of the full effect not given here | activation, % (concentration not given with the values) | 0.12% of 410,000 active | AID 624414; in the data active = activation above about 50%; inconclusive = about 30% to 50%; inactive = below about 30%; further: 0% is about no effect; the text of the record puts the active cut at 80%
Target sequence (Q9GZU1 whole entry, looked up): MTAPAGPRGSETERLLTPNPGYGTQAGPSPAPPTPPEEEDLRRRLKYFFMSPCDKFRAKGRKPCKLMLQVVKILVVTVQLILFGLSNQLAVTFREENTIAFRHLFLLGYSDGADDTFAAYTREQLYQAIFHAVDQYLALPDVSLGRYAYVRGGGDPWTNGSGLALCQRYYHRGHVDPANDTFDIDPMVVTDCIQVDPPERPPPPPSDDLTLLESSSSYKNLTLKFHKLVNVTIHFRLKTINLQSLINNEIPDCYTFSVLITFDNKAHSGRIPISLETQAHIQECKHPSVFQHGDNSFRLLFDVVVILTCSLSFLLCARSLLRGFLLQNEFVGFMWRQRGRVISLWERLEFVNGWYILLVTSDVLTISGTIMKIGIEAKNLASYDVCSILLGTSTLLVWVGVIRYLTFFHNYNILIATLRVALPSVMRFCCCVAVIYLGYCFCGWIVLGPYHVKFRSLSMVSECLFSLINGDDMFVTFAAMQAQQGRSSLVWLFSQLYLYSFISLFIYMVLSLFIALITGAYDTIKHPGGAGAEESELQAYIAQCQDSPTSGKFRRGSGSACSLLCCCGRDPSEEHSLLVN
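Tet-induced TRPML1-DL cells, 1,500 per well, cultured overnight, were loaded with a no-wash Ca2+ dye for 45–90 min. Calcium fluorescence was recorded on the FDSS for 110 s after compound addition, before the EC80 agonist (4 uM 54-4) was added.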
TRPML1 inh = blocks the human TRPML1 channel. Q9GZU1. TRPML1-inducible cells, Ca2+ dye fluorescence, FDSS; stronger effect = lower value; inhibition of EC80 agonist-evoked calcium signal. activity change, negative = inhibition, % (test concentration not listed). 0.02% of 390,000 active; in the data active means activity change below about -50%; inconclusive means about -30% to -50%; inactive means above about -30%;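 further: stimulus is agonist 54-4 at its EC80 concentration; on the % scale 0 is the no-effect control and ±100 the full control effect; compound concentration not given in the record; the text of the record puts the active cut at -80%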
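Calcium fluorescence in TRPML1-DL cells induced overnight with Tet: a 110 s read after compound pin addition, then a 110 s antagonist read after challenge with 54-4 at 4 uM final (EC80).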
Menin-MLL FL inh = displaces fluorescein MLL peptide from human menin; FP activity change, % at 61.4 µM; AID 1766; 290,000 tested, under 10 active; Fluorescence polarization, fluorescein-MLL peptide displacement from menin; inconclusive = falling polarisation curve, or a change in total fluorescence; inactive = total fluorescence flat and polarisation flat or rising; no compound was filed as active; the % refers to the polarisation; negative = inhibition;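 further: % of control where 0% means no effect; inhibitors lower the polarisation; unlabelled MLL peptide was the positive control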
gsp antagonist = antagonizes gsp, the McCune-Albright syndrome mutation | gsp-mutant cells, cAMP HTRF, 30 min; control for the full effect not named in the record | Potency, µM (doses to about 76.9 µM), for inactives: top-dose activity change, negative = inhibition, usual class: inhibitors | 0.4% of 340,000 active; active = falling curve of any shape with a large fitted effect; inconclusive = falling curve, mostly with a smaller effect; inactive = flat or rising curve; cell line not stated here;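 further: intracellular cAMP measured with PDE inhibitor Ro 20-1724 present during compound exposure; potency means the concentration at half of the fitted maximal effect; on the % scale 0 is the no-effect control and ±100 the full control effect; nearly all actives have a fitted effect of over 65% in size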
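G418-selected cells were plated in DMEM/10% FBS for 16-24 h at 37C, then treated with compounds plus the PDE inhibitor […] (300 uM solution added) for 30 min at 37C. Intracellular cAMP was measured by HTRF after 30 min lysis at room temperature.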
Active calls of the source: *; ? = inconclusive; / = no result given; [ ] = dose if it differs, or a comment.

Results follow in this order: gsp agonist, ClpP mod, TRPML1 agonist, TRPML1 inh, Menin-MLL FL inh, gsp antagonist
Cc1ccc(C(=O)NCC(=O)Nc2ccncc2)cc1C
→ -25.6%, -2.5%, 0.6, -19.4, 4.9, -6.1%
O=C(O)Cc1c[nH]c2ccc(O)cc12
→ /, -9.6%, -0.1, 1.5, 4.1, -15.4%
O=C(C1CCC(=O)N(C2CC2)C1)N1CCC(Oc2ccccc2F)CC1 (configuration not stated)
→ 10.3%[15.4 µM], -1.0%, 0.1, -1.3, -3.6, -0.1%
Cc1c(OCC(=O)NCC(O)c2ccccc2)ccc2c3c(c(=O)oc12)CCC3 (configuration not stated)
→ -27.0%, 4.3%, -1.0, -16.1, /, -15.9%
CC1CCCCN1S(=O)(=O)c1csc(C(N)=O)c1 (configuration not stated)
→ -38.5%[inhibitor], -1.3%, 0.6, 20.9, /, -3.7%
CC(C)C(NS(=O)(=O)c1ccccc1)C(=O)N1CCN(C(=O)c2ccco2)CC1 (configuration not stated)
→ 28.7%, -3.2%, -0.2, -6.9, /, 9.8%
Cc1ccc(S(=O)(=O)N2CCC(C(=O)NCC3CCCCC3)CC2)cc1
→ -42.9%[inhibitor], /, -0.2, 3.6, -1.5, -5.4%
COc1cc(Nc2nc3ccccc3c3nnc(C)n23)cc(OC)c1
→ /, -22.8%, 2.9, 38.3, /, /
CNc1sc(C(=O)c2cccs2)c(N)c1-c1nc2ccccc2s1
→ ?, 0.7%, -0.9, -23.7, 1.5, -18.6%
COc1ccc(Cl)cc1NC(=O)c1noc(C)c1[N+](=O)[O-]
→ -6.8%, 1.5%, 0.7, 19.5, /, 0.4%
Cc1ccc(S(=O)(=O)Nc2ccc(O)c3ccccc23)c(C)c1
→ -6.9%[15.4 µM], -3.7%, 1.5, -16.2, ?, 3.4%
C[C@H](CO)N1C[C@H](C)[C@@H](CN(C)C(=O)Nc2ccc3c(c2)OCO3)Oc2c(NC(=O)c3ccncc3)cccc2C1=O
→ 15.6%, -1.0%, -0.1, 0.1, /, 6.4%
Cc1cc(C(=O)Nc2cnc3ccccc3c2)ccc1[N+](=O)[O-]
→ 8.9%[15.4 µM], /, 1.6, -1.0, 0.0, -2.6%
O=C(CCn1c(=O)sc2ccccc21)NCc1cccs1
→ -3.7%, -0.5%, -0.3, 10.0, 5.4, -2.9%
Cc1cc(C)cc(NC(=O)Cn2c(=O)c3ccccc3n3nncc23)c1
→ /, -2.4%, -0.7, 1.4, /, /
COc1ccc(-c2ccc(CN3C(CC(C)C)C(=O)N(Cc4cn(CC5CCCCC5)nn4)CCS3(=O)=O)cc2)cc1OC (configuration not stated)
→ -49.1%, ?, -0.2, -3.7, /, /
CCCCNC(=O)c1onc(CSc2cccc3ccccc23)c1C(=O)O
→ /, 1.8%, -0.5, 2.8, 0.3, -23.3%
CN(C(=O)c1nn(C)c2c1CSc1ccccc1-2)c1ccc(F)cc1
→ 12.5%, -0.5%, 0.5, 3.3, 4.6, 8.7%
CCc1ccc(NC(=O)NCc2ccccn2)cc1
→ 6.1%, -1.2%, -0.4, -3.3, -4.6, -5.3%
CCOC(=O)CC(NS(=O)(=O)c1ccc(OC)c(OC)c1)c1cccc([N+](=O)[O-])c1 (configuration not stated)
→ -32.8%[inhibitor], -1.1%, -0.8, 8.7, -0.2, 5.3%
CCN1CCCc2cc(CN(CCN3CCOCC3)C(=S)Nc3ccc(OC)c(OC)c3)ccc21
→ 31.2%, -4.0%, /, /, -4.7, -7.9%
CCOC(=O)C1CCN(C/C=C/c2ccccc2OC)CC1
→ ?, -2.9%, 0.5, -0.1, 3.7, 3.0%
O=C(NN1C(=O)C2C3c4ccccc4C(c4ccccc43)C2C1=O)c1ccccc1 (configuration not stated)
→ -2.2%, -2.7%, -0.6, -3.0, 2.2, -7.2%
Cc1ccc(C(=O)Nc2nc(C)c(C)s2)o1
→ 7.6%, -11.4%, -0.1, -6.7, 1.7, 1.6%
COc1ccc(NC(=O)CCS(=O)(=O)c2nc(-c3cccs3)cc(C(F)(F)F)n2)cc1
→ /, -7.6%, -0.2, -0.6, /, /
CCOc1ccc(NC(=S)NNC(=O)c2ccc(Br)cc2)cc1
→ -3.3%[15.4 µM], /, 1.4, -5.4, -1.5, -22.4%
FC(F)(F)c1nnc2ccc(-n3ccnc3)nn12
→ ?, -3.8%, -0.3, 7.7, -1.0, 7.7%
CCCN(CCC)Cc1c(C(=O)N/N=C/CCc2ccccc2)nnn1-c1nonc1N
→ -7.4%[15.4 µM], /, 0.7, 15.1, -0.7, ?
COc1ccc(NC(=O)CN2C(=O)NC(C)(C3CC3)C2=O)cc1S(=O)(=O)N1CCCCC1 (configuration not stated)
→ ?, ?, -0.4, 4.6, /, 5.1%
Cc1ccc(NC(=S)N/N=C/c2cccn2Cc2ccccc2F)cc1
→ -10.8%[15.4 µM], /, 0.2, -17.6, 0.9, -1.7%
COC(=O)c1ccc(COc2ccc(/C=N/O)cc2OC)o1
→ -15.5%, /, 0.1, -5.2, -0.7, -3.1%
COc1ccc(-c2nc(S(=O)(=O)c3ccccc3)c(N3CCOCC3)o2)cc1
→ 1.9%, -2.7%, -0.1, 21.6, 4.9, 3.1%
O=C(COC(=O)c1cc([N+](=O)[O-])ccc1N1CCOCC1)NCc1ccc(Cl)cc1Cl
→ 6.1%, -0.4%, 0.0, 6.5, /, -11.5%
COc1ccccc1C(=O)NNC(=O)c1ccc(Cl)cc1
→ 4.1%, -1.5%, 1.0, -15.3, 0.0, 2.3%
CC1CC1C(=O)Nc1cc(S(=O)(=O)N2CCOCC2)ccc1N1CCCC1 (configuration not stated)
→ -0.7%[15.4 µM], /, -0.5, 1.3, -2.8, /
CCOc1ccc2cc(C#N)c(SCC(=O)OC)nc2c1
→ ?, ?, 2.0, 8.2, 8.0, 2.0%
O=C(CSc1ccc2c(c1)OCCO2)NCc1ccco1
→ 9.1%, -2.5%, -0.1, -10.1, 10.8, -7.5%
CCOC(=O)C(CC)(CCC(=O)O)c1csc(N)n1 (configuration not stated)
→ -14.7%, -3.1%, -0.5, 4.9, -4.0, -1.6%
COc1ccc(-n2nc([N+](=O)[O-])c(=NCCC3=CCCCC3)n2O)cc1
→ 6.2%[15.4 µM], -1.1%, 1.2, 42.1, 1.3, -15.3%
O=C(COC(=O)C1CCCN1C(=O)c1cccs1)c1ccccc1 (configuration not stated)
→ 0.7%, 0.5%, -1.5, 8.2, 4.5, ?
COc1cccc(C(=O)CC(C(=O)O)c2ccc(F)cc2)c1 (configuration not stated)
→ -3.0%, /, -0.5, 10.6, 2.8, -14.6%
Cc1cc(C)cc(OCC(=O)Nc2cccc(-c3nnc(-c4ccco4)o3)c2)c1
→ ?, 31.6µM*, 0.4, 2.4, -0.1, ?
Cc1nn(C)c(Cl)c1C(=O)NCC(=O)O
→ 6.2%[15.4 µM], /, 1.1, -5.5, 1.9, 12.3%
CCCC(=O)OCC(=O)Nc1ccccc1Sc1ccccc1
→ ?, 1.2%, 4.4, -1.7, 3.7, 12.7%
O=c1cc(-c2ccccc2)nc2nc(SCc3ccccc3)[nH]n12
→ -16.9%, -8.3%, 1.1, -11.9, 2.2, 25.1µM*
CCOc1ccc(N=c2cc(-c3ccc(OC)cc3)oc3ccccc23)cc1
→ -1.4%[15.4 µM], -1.1%, 1.5, 53.9, 2.3, -21.6%
CCc1ccc(C(=O)COC(=O)C(Cc2ccccc2)NC(=O)C2CCC(C)CC2)cc1 (configuration not stated)
→ 21.0%, 0.1%, 3.2, 36.5, 4.8, 3.5%
CCOC(=O)N1CCN(C(=O)c2cc3cc(F)ccc3[nH]2)CC1
→ -6.8%[15.4 µM], 1.6%, -1.0, -7.9, -5.4, 4.7%
COCCCn1c(SCC(=O)OC2CCCCC2)nnc1-c1cccs1
→ 24.9%, -5.6%, -0.1, 6.6, 1.1, -12.1%
CCOc1ccc(CCNC(=O)C2CCC(=O)N2C2CCCCC2)cc1OCC (configuration not stated)
→ ?, 0.8%, 0.4, 23.5, 1.2, -4.0%
Cc1ccccc1C(CC(=O)c1cccs1)C(C#N)C#N (configuration not stated)
→ -24.3%, 1.4%, 1.1, -9.5, 8.2, -3.2%
CC(C)c1ccc(N(C(=O)c2ccc3c(c2)OCO3)C2C=CS(=O)(=O)C2)cc1 (configuration not stated)
→ -0.7%, 0.9%, -1.6, -14.3, /, -20.1%
CCOC(=O)C1CCCN(S(=O)(=O)Cc2ccccc2Cl)C1 (configuration not stated)
→ -9.4%, -3.0%, 0.9, 35.5, -1.4, 7.6%
CCOc1ccccc1N1CCN(S(=O)(=O)c2ccc(Cl)s2)CC1
→ 42.8%, 0.5%, 0.0, 26.7, 4.1, -9.2%
CCOc1cccc(/C(O)=C2/C(=O)C(=O)N(CCOC)C2c2ccncc2)c1 (configuration not stated)
→ 29.2%, 0.8%, 0.1, -3.9, 0.7, 6.7%
COc1ccc(CCC(=O)OC(C)C(=O)c2ccc(C)cc2)cc1 (configuration not stated)
→ 11.1%[15.4 µM], -1.8%, 2.5, 1.3, /, 6.6%
CCC(C)NS(=O)(=O)c1ccc(NS(=O)(=O)c2ccccc2[N+](=O)[O-])cc1 (configuration not stated)
→ -22.5%, 1.5%, -0.2, 2.2, -1.6, 14.0%
COc1cc(CNC2CCCCC2)c(Br)cc1OC1CCCC1
→ 0.4%, 0.0%, -0.6, 25.7, -4.6, 4.7%
CC(O)CC(C)O (configuration not stated)
→ /, 0.9%, 0.1, 22.6, /, -6.8%
O=C(NCC(=O)N(Cc1ccco1)C(C(=O)NC1CCCCC1)c1ccncc1)c1cccs1 (configuration not stated)
→ -15.6%[15.4 µM], /, -0.1, -5.7, -2.6, -0.6%

Next part.
Results follow in this order: gsp agonist, ClpP mod, TRPML1 agonist, TRPML1 inh, Menin-MLL FL inh, gsp antagonist
CC1CCN(C(=O)COC(=O)c2n[nH]c3ccccc23)CC1
→ -19.0%, 28.2µM*, -1.3, 5.2, 1.9, 4.6%
CC(C)C(NS(=O)(=O)c1ccc2c(c1)oc(=O)n2C)C(=O)N1CCN(c2cccc(Cl)c2)CC1 (configuration not stated)
→ /, 1.2%, 0.6, -6.7, /, /
CCC(=O)Nc1cccc(-c2nnc(-c3ccccc3)o2)c1
→ 3.1%[15.4 µM], /, 1.2, 6.4, /, -19.0%
Cc1ccc(CNC(=O)Cn2ncc3c(C)n(Cc4ccc(Cl)cc4)c(C)c3c2=O)cc1
→ /, 1.4%, 0.3, -12.4, /, /
CN(C)c1ccc(C(=O)N2CC(=O)N(CCc3ccccc3)C(=O)C2)cc1
→ ?, -20.8%, -0.1, 12.0, -0.8, -0.5%
O=C1c2cccc(OCc3ccc(F)cc3)c2CCN1Cc1ccc(F)cc1
→ -16.0%, -2.3%, 2.3, 11.8, 0.1, -19.6%
Cc1ccc(C(=O)NNC(=O)c2ccccc2OCc2c(C)noc2C)cc1
→ 0.0%[15.4 µM], -6.5%, 0.6, -3.8, /, -3.2%
